Vaccinia mCherry: inhibitors of vaccinia virus infection (mCherry reporter signal) | Vaccinia virus mCherry reporter infection, fluorescence; about a quarter of the inactives have no number | Potency, µM (titrated, usually from 36.5 µM), inactives show top-dose activity change, negative = inhibition, most hits filed as inhibitors | 310,000 tested, 0.63% active; active = well fitted inhibition curve with a large enough effect; inconclusive = small, poorly fitted or top-dose-only effect; inactive = no such curve, though single readings can be large or run the other way; tested in A549 cells; further: nearly all actives have a fitted effect of over 35% in size; inactives centre near -10
Vaccinia Venus: vaccinia inhibition (Venus reporter); AID 720580; Vaccinia virus Venus reporter expression, fluorescence; Potency, µM (highest dose often 36.5 µM), for the others: at the top dose activity change, negative = inhibition, most hits filed as inhibitors; 330,000 tested, 0.46% active; active means well fitted inhibition curve with a large enough effect; inconclusive means small, poorly fitted or top-dose-only effect; inactive means no such curve, though single readings can be large or run the other way; tested in A549 cells; further: nearly all actives have a fitted effect of over 30% in size; inactives centre near -10
* = called active by the depositor; i = inactive; ? = inconclusive; nt = no result given; [ ] = dose if it differs, or a comment. On the % scale 0 is the no-effect control and ±100 the full control effect; potency means the concentration at half of the fitted maximal effect.

Molecule,Vaccinia mCherry,Vaccinia Venus
COc1cc2c(cc1OC)C1=C(C#N)CN(CC(=O)O)CN1CC2,31.5%[activator],3.1%
Cn1c(O)c(N=Nc2ccccc2[N+](=O)[O-])c2ccccc21,-12.8%,0.6%
Cc1oc2ccc(Br)cc2c(=O)c1-c1nn[nH]n1,-13.4%,-1.8%
CCCn1c2ccccc2c2cnn(CC(=O)NCc3cc(OC)ccc3OC)c(=O)c21,?,?
CCOC(=O)c1c(CC(C)C)csc1NC(=O)COC(=O)C1=NNC(=O)CC1,i,-11.6%
Cc1ccc(-n2c(-c3ccccc3)c[nH]c2=S)cc1,-10.8%,-19.9%
Cc1cc(C)cc(C(=O)NCC(=O)OCC(=O)NCc2ccco2)c1,i,-3.0%
CN(C)c1ccc(/C=N/NC(=O)c2ccccn2)cc1,-11.7%,-13.2%
Clc1cc(NCc2cccs2)ccc1N1CCOCC1,-10.8%,-6.8%
O=C1CN(C(=O)CCN2CCOCC2)C(c2ccccc2)c2cc(Br)ccc2N1 (stereo unspecified),-1.5%,-7.6%
O=C(CN1C(=O)C2CCCCN2c2ccc(C(=O)N3CCCC3)cc21)NCc1ccccc1 (stereo unspecified),-12.4%,-15.1%
NS(=O)(=O)c1cc([N+](=O)[O-])ccc1NCc1cccnc1,i,-14.8%
O=C(Cc1noc2ccccc12)Nc1ccc(Cl)cc1,-5.9%,-3.3%
O=C(Cc1cc(=O)oc2cc(O)ccc12)NN=Cc1ccc(N(CCCl)CCCl)cc1,i,-16.8%
O=C(Nc1ncn[nH]1)c1cccc(S(=O)(=O)N2CCOCC2)c1,5.3%,2.7%
CCCS/C(N)=N/N=C/c1ccccc1O,nt,-12.9%
O=C(CN1CCN(C/C=C/c2ccccc2)CC1)NCc1ccc(Cl)cc1,?,-3.9%
Cc1cccc(CCNC(=O)C2CCCN(S(=O)(=O)c3ccc4c(c3)oc(=O)n4C)C2)c1 (stereo unspecified),-8.4%,-4.5%
CCOC(=O)N1CCN(c2ccc([N+](=O)[O-])cc2F)CC1C (stereo unspecified),-11.5%,?
O=C(O)/C(=C\c1cccc(C(F)(F)F)c1)c1ccc(S(=O)(=O)N2CCCC2)s1,-15.8%,-3.8%
COc1ccccc1C(=O)CSc1n[nH]c(N)n1,i,-24.0%
CCCOc1ccccc1OCC(=O)Nc1cccc(S(=O)(=O)NC2=NCCC2)c1,-22.5%,-19.1%
CC(C)Oc1ccc(C2c3c(oc4ccccc4c3=O)C(=O)N2CCCN2CCOCC2)cc1 (stereo unspecified),-14.5%,-14.5%
COc1ccccc1CNS(=O)(=O)c1ccc2c(c1)CCCN2C(C)=O,?,-21.7%
Cc1ccc(Cl)cc1NC(=O)Nc1nnc(N2CCCC(C)C2)s1 (stereo unspecified),-23.4%,-18.7%
O=C(CSc1nnnn1-c1cccc2ccccc12)NC(C(=O)O)(c1ccccc1)c1ccccc1,-28.0%,-5.0%
Cc1ccc(Nc2nnc(SC(C)C(=O)NC3CC3)s2)cc1 (stereo unspecified),-12.6%,-20.4%
C/C=C/c1ccc(O)c(OC)c1,i,-2.5%
O=S(=O)(/N=C(/NC(=S)Nc1ccccc1)c1ccccc1)c1ccc(Cl)cc1,-15.4%,-1.9%
COc1ccc(NC(=O)CC2C(=O)N(c3cccc(OC)c3)C(=O)N2C(C)C)cc1 (stereo unspecified),i,-5.4%
O=C1NN(c2ccccc2)C(=O)C2C3C=CC(C4CC34)C12 (stereo unspecified),-15.0%,-4.3%
O=C(Nc1ccc(NC(=O)c2ccco2)cc1)c1ccco1,-11.7%,-5.4%
CSc1ccc(Cl)c(C(=O)OCC(=O)Nc2ccccc2OC(F)F)c1,-15.6%,-6.9%
CSc1ccccc1OCc1cc(C(=O)N(C)Cc2cc(C)[nH]n2)no1,-16.2%,-19.4%
Cc1cc(Cl)c(S(=O)(=O)N/N=C/c2ccc3c(c2)OCO3)c(Cl)c1,-13.3%,32.6%[activator]
O=C(NCc1cccnc1)c1ccc(Cl)c(Cl)c1,nt,-22.9%
CCOC(=O)C(=O)/C(C#N)=C/Nc1ccccc1,i,0.0%
C=CCN1C(=O)/C(=C/c2ccc(O)cc2)S/C1=N/c1nccs1,i,131.7%[activator]
CCCCn1c(NS(=O)(=O)c2ccccc2)c(C(=O)OCC)c2nc3ccccc3nc21,-12.4%,-9.6%
CCOC(=O)Cn1c(=O)oc2cc(S(=O)(=O)Nc3ccc(N(CC)CC)cc3C)ccc21,-9.8%,-6.7%
CC(=O)Nc1ccc(O)c(-c2nc3ccccc3s2)c1,?,-25.5%
Cc1cccc(N(CC(=O)N2CCOCC2)S(C)(=O)=O)c1,-15.1%,-9.9%
COc1ccccc1C(=O)Nc1ccnn1C1CCN(Cc2cnc(N(C)C)s2)CC1,-25.0%,-29.1%
CCSc1nnc([C@@H]2CCCN2C(=O)OC(C)(C)C)o1,nt,-17.0%
CCS(=O)(=O)c1ccc2oc(Nc3cccc(OC)c3)nc2c1,?,-15.0%
COc1ccc(CN(C(=O)CO/N=C/c2ccccc2)c2ccccc2C(=O)O)cc1,i,1.0%
COc1cc(/C=C2/CCCC(C(=O)C(F)(F)F)=C2O)ccc1O,-18.2%,-7.6%
C=CCSc1nnc(NC(=O)CSc2nnc(C)s2)s1,nt,-2.9%
CN(C)C(CNC(=O)c1cc2ccccc2oc1=O)c1ccccc1 (stereo unspecified),-13.8%,-11.7%
Cc1ccc(N(CC(=O)Nc2cccc(Cl)c2)S(=O)(=O)c2cccs2)cc1,-17.7%,-10.3%
CCOC(=O)C1=C(CSc2nnnn2C)N(C)C(=O)NC1c1ccccc1 (stereo unspecified),nt,-8.8%
Cc1ccc(-c2nc3ncccc3o2)cc1NC(=O)C(C)C,-9.1%,-0.4%
CC(C)c1nc(SCC(=O)NC2CCCCC2)c2ccccc2n1,39.0%[activator],-11.5%
Cc1occc1C(=O)NNC(=S)NC(=O)COc1ccc(Cl)cc1Cl,-5.8%,-9.0%
CCC(C)(C)NCC(=O)Nc1ccc(OC(F)(F)F)cc1,-11.2%,-22.6%
COc1ccc(/C=C/C(=O)Oc2ccc(/C=N\NC(=O)c3ccc(F)cc3)cc2)cc1,i,4.6%

(continued)
Molecule,Vaccinia mCherry,Vaccinia Venus
CC(=O)Nc1ccc(C2C(=O)c3ccccc3C2=O)cc1,-7.9%,-4.4%
Cc1ccc(NC(=O)CCCNC(=O)c2ccc(Cl)cc2)cc1S(=O)(=O)N1CCCCC1,-28.1%,-18.4%
Cc1ccc(-n2cccn2)c([C@@H]2C[C@H]3CN(C)C(=O)[C@]34CCCN24)c1,i,0.6%
CC(NC(=O)COc1ccc(Br)cc1)C1CCCO1 (stereo unspecified),-5.6%,-7.3%
CCN(CC)S(=O)(=O)c1ccc(NC(=O)COc2nc3ccccc3nc2N2CCOCC2)cc1,-11.8%,-6.0%
O=C(Cn1c(=O)n(-c2ccc(Cl)cc2)c(=O)c2c3c(sc21)CCC3)c1ccccc1,0.6%,2.4%
CCCS(=O)(=O)N1CCCC(C(=O)NCCCOC(C)C)C1 (stereo unspecified),2.9%,18.9%
CCN(CC)P(c1n(C)cc[n+]1C)N(CC)CC,i,-14.2%
N#Cc1ccc(COc2cccnc2[N+](=O)[O-])cc1,?,3.5%
CCn1ccnc1CN1CCc2c([nH]c3ccccc23)C1C(C)(C)C (stereo unspecified),-23.0%,-4.8%
CCC(Sc1nc2ncccc2o1)C(=O)Nc1cccc(C)c1 (stereo unspecified),-24.6%,-13.7%
CC1(C)C=Cc2c(ccc3c2OC[C@H](c2ccc(O)cc2O)C3)O1,-29.4%,?
COC(=O)c1ccc(/C=N/N2CCN(Cc3ccccc3Cl)CC2)cc1,-7.1%,19.7%
O=C(COc1ccccc1F)Nc1nnc(SCc2cc(=O)c3ccccc3[nH]2)s1,-4.7%,0.7%
Cc1c(C(=O)NCc2ccco2)sc(=O)n1Cc1ccc(S(C)(=O)=O)cc1,1.0%,0.0%
O=C(NN1C(=O)C2C3C=CC(C3)C2C1=O)c1ccncc1 (stereo unspecified),-22.7%,-15.3%
COc1ccc(-c2cc(-c3ccc(C)cc3)nc(SCc3nnc(-c4ccccc4)o3)c2C#N)cc1OC,0.8%,-4.6%
CCCn1nnnc1NCc1cc(Br)ccc1OC,i,-9.8%
N#C/C(=C/c1ccc(Cl)cc1)NC(=O)c1ccccc1,nt,-24.2%
COC(=O)c1ccccc1N(C)S(=O)(=O)c1cc2c3c(c1)CCC(=O)N3CCC2,i,-11.8%
O=C(Nc1ccc(Br)cc1)C1CCCN1S(=O)(=O)c1cccs1 (stereo unspecified),nt,?
CCC(=O)N1CCc2cc(S(=O)(=O)N3CCCCCC3)ccc21,i,-13.6%
CC[C@]12c3[nH]c4ccc(Cl)cc4c3CCN1C(=O)[C@@H](CC(=O)NCc1cccc(C(F)(F)F)c1)C[C@@H]2C(=O)N1CCN(C(=O)C2CC2)CC1,i,?
COc1ccc(NC(=O)CN2CCN(C(=O)C3CCCO3)CC2)c(OC)c1 (stereo unspecified),-8.5%,-2.5%

Whole records from above.
CC[C@]12c3[nH]c4ccc(Cl)cc4c3CCN1C(=O)[C@@H](CC(=O)NCc1cccc(C(F)(F)F)c1)C[C@@H]2C(=O)N1CCN(C(=O)C2CC2)CC1 across the screens: Vaccinia mCherry: i; Vaccinia Venus: ?
N#C/C(=C/c1ccc(Cl)cc1)NC(=O)c1ccccc1 across the screens: Vaccinia mCherry: nt; Vaccinia Venus: -24.2%

Additional structures
Molecule,Vaccinia mCherry,Vaccinia Venus
O=C(NCc1ccc(F)cc1)c1cnc2n(c1=O)CCS2,1.7%,2.6%
O=C(NCc1ccccc1)C12CC3CC(CC(Br)(C3)C1)C2,-3.4%,-7.4%
CN1CCN(C2CN(Cc3cn(Cc4cccc(Cl)c4)nn3)S(=O)(=O)C2)CC1 (stereo unspecified),-6.1%,-9.1%
Cc1ccn2c(Nc3ccc4c(c3)OCO4)c(-c3ccco3)nc2c1,-12.6%,-3.2%
O=C(COC(=O)CCSc1ccc(Cl)cc1)Nc1ccc(F)cc1,-10.0%,-8.1%
CC(=O)C1=C(C)NC(SCC(=O)Nc2nc3ccccc3s2)=C(C#N)C1c1ccc(Cl)cc1 (stereo unspecified),-3.0%,-8.4%
COc1ccc(C2c3[nH]c4ccccc4c3CCN2C(=O)c2cn3ccccc3n2)c(F)c1 (stereo unspecified),-11.8%,-15.0%
CCCCCC(=C/c1ccccc1)/C=N/Nc1ccc(S(=O)(=O)N2CCOCC2)cc1[N+](=O)[O-],?,6.7%
CCCc1nnc(SCC(=O)Nc2nnc(CC)s2)n1CC1CCCO1 (stereo unspecified),i,-4.8%
Cc1ccc(OCC(=O)NNC(=O)CCC(=O)Nc2ccc(C)cc2C)cc1,-4.1%,-8.7%
Cc1cc(N2CCCC(C(=O)Nc3cccc(Cl)c3)C2)n2ncnc2n1 (stereo unspecified),-4.6%,-13.9%
O=C(CCCc1ccccc1)NCCS(=O)(=O)N1CCN(c2ccccc2F)CC1,-2.8%,-13.4%
O=C(c1coc2ccc(O)c(CN3CCOCC3)c12)C1CC1,-13.2%,-8.4%
O=C(COC(=O)C1CC(=O)N(C2CCCCC2)C1)c1ccc(F)cc1 (stereo unspecified),-3.4%,0.9%
CCN(CC)S(=O)(=O)c1ccc(N2CCOCC2)c(NC(=O)c2ccco2)c1,i,-10.4%
N#Cc1c2c(c(=S)n(-c3ccccc3)c1N)CCCC2,-5.3%,18.8%
CC(C)[C@H](NC(=O)NCCC1=CCCCC1)C(=O)O,-14.7%,2.0%
O=C(NNC(=O)OCc1ccccc1)OCc1ccccc1,i,5.6%
CNC(=O)c1cc2cc(Cl)cc(OC)c2oc1=O,-15.8%,-3.6%
COC(CNC(=O)c1cccnc1)OC,i,-7.6%
CCOC(=O)Cc1csc(NC(=O)c2ccc(OC)c(OC)c2)n1,i,-3.3%
O=c1c(/C=N/O)c(Nc2ccccc2)nc2ccccn12,-21.0%,?
Cc1ccc(S(=O)(=O)N(CC(=O)NCCC2=CCCCC2)Cc2ccccc2F)cc1,nt,-16.8%
C[C@@H](C(=O)NCc1ccc(S(C)(=O)=O)cc1)[C@H]1C[C@]1(C)[C@H](NC(=O)OCc1ccccc1)c1ccccc1,-24.6%,-12.2%
O=S(=O)(Nc1cccc(Cl)c1)c1ccc2oc(=S)[nH]c2c1,-2.8%,-6.3%
Cc1ccc2nc(SC(C)C(=O)N3CCOCC3)[nH]c2c1 (stereo unspecified),-6.9%,-9.1%
O=C1C=CC2=C3c4cc(O)c(O)cc4C[C@]3(O)COC2=C1,i,i
CN(C)c1ccc(N/C(N)=N/c2nc(C(F)(F)F)cc(C(F)(F)F)n2)cc1,-46.7%,?
O=C(NCc1ccccc1)C(=O)NCC(c1cccs1)S(=O)(=O)c1ccccc1 (stereo unspecified),-10.1%,-7.2%

Screens: PubChem BioAssay, National Center for Advancing Translational Sciences (NCATS)
